YopH inh – YopH (Yersinia) phosphatase inhibition | inhibition, %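 (about 10 µM by stock and volumes)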 | fluorescence Ex485/Em525 | AID 898 | 140,000 compounds, 0.16% hits;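 active = inhibition of 50% or more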;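 note: controls were vehicle for no effect and minimum signal wells for full effect; inactives centre near -20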
Arbovirus anti – antivirals against arbovirus infection; arbovirus infection cell-based antiviral screen; inhibition, % at 10 µM; 200,000 compounds, 0.37% hits;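 active = inhibition from about 30%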;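 note: bluetongue infection of BSR cells; cell survival read as ATP light after 72 h; 0% = infected wells without compound and 100% = uninfected wells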
Mtb bLac sens – beta-lactam sensitization of Mtb H37Rv | M. tuberculosis H37Rv growth with meropenem, percent inhibition; hits of this screen are not shown here | inhibition, % at 25 µM | 330,000 compounds, 0.27% hits;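 active = about 74% or more and at least 40 points above the plate without the antibiotic, then above 30% in a dose series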;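 note: growth measured after seven days incubation then overnight dye step; 0% = bacteria only wells and 100% = bacteria with antibiotic; twin plates without the antibiotic show which effects depend on it; some results filed as inactive read as strong as hits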
RecA intein inh – Mtb RecA intein splicing inhibition | P9WHJ3 | cell-free RecA intein splicing, fluorescence | inhibition, %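 (about 9 µM by stock and volumes)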 | 290,000 compounds, 0.75% hits; in the data active = inhibition above about 30%;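 note: 0% = vehicle wells and 100% = reference inhibitor control wells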
Target sequence (P9WHJ3 whole entry, looked up): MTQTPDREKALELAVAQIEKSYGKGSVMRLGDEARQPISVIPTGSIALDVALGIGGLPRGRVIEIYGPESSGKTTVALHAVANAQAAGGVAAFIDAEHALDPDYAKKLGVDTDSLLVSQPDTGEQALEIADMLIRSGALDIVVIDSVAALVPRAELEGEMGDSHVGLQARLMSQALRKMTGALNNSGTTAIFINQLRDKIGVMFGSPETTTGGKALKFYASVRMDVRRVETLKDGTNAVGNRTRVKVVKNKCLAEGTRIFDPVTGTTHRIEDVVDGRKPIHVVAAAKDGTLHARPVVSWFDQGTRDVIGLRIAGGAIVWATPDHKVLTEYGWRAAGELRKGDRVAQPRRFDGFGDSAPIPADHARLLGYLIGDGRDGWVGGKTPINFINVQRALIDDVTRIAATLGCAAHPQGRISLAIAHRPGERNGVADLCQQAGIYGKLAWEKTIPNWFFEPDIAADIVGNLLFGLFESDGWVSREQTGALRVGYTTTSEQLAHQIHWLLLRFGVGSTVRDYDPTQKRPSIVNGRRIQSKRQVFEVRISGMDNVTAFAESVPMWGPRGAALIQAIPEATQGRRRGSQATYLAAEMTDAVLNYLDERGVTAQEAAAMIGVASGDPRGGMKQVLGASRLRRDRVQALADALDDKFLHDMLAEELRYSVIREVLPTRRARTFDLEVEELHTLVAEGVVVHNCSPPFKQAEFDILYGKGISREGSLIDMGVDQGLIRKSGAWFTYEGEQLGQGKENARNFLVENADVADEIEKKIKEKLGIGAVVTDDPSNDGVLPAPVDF
Mtb H37Rv – M. tuberculosis H37Rv growth inhibitors, H37Rv strain (AID 1626); M. tuberculosis H37Rv growth inhibition; higher % means a stronger effect; 220,000 compounds, 0.95% hits; one-dose inhibition, % at 10 µM; IC50 in µM for titrated hits;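 active = confirmed in a dose series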;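 note: bacteria incubated seven days before Alamar blue readout; 0% = bacteria only wells and 100% = bacteria with antibiotic wells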
Arbovirus anti repeat – second read-out of Arbovirus anti, no call of its own (marks repeat the call); inhibition, %; measured here: 10K subset replicate screen; many hits read low in the repeat;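 first of two repeat runs on a subset; 0% = infected and 100% = uninfected wells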
An asterisk follows results filed as active; . = not tested or not shown.

SMILES | YopH inh | Arbovirus anti | Mtb bLac sens | RecA intein inh | Mtb H37Rv | others
COC(=O)C1=C(C)NC(=O)CC1c1ccccc1OC (centres undefined) | . | 1 | -4 | -3.2 | 2%
CCC(CC)N1CCN(Cc2nc3ccccc3c(=O)n2-c2ccc(F)cc2)CC1 | . | . | -5 | 2.2 | .
O=C(COC(=O)CSc1ccccc1)NCCNC(=O)COC(=O)CSc1ccccc1 | . | . | -9 | -1.0 | .
Cc1ccc(NC(=O)COc2nc(C)cs2)cc1 | -17 | -2 | 8 | . | 2%
CCCC(C(=O)NC1CCCC1)N(Cc1ccc(F)cc1)C(=O)c1snc(C(N)=O)c1N (centres undefined) | . | . | -1 | 0.1 | .
O=S(=O)(NC1CC1)c1ccc2c3c(cccc13)CC2 | . | 10 | 1 | 4.5 | 5%
Cc1cccc2sc(NNC(=O)c3ccc4c(c3)OCCO4)nc12 | -7 | -5 | 75 | -1.4 | .
NC(=O)/C(=C/c1ccc2c(c1)OCO2)NC(=O)c1ccco1 | . | 5 | 1 | 0.9 | 2%
Cn1cc(CN2CCN(Cc3ccccc3)CC2)c(-c2cccc(Cl)c2)n1 | . | -6 | -8 | -4.4 | 2%
Cc1ccnc(NS(=O)(=O)c2ccc(NS(C)(=O)=O)cc2)n1 | . | . | 3 | -1.3 | 4%
NS(=O)(=O)c1ccc(NC(=O)C2CCCO2)cc1 (centres undefined) | -29 | 9 | -3 | -0.3 | -1%
O=C(CCCCn1c(=O)[nH]c2ccccc2c1=O)NC1CCN(Cc2ccccc2)CC1 | -31 | 5 | -7 | -0.5 | . | Arbovirus anti repeat=-1
O=C(c1ccc(F)cc1)N1CCCC(C(=O)N2CCc3ccccc3C2)C1 (centres undefined) | . | . | -3 | 2.2 | -6%
COc1ccc2nc(SCC(=O)Nc3c(C)cccc3C)[nH]c2c1 | -2 | 5 | 5 | 2.0 | -2%
COc1cccc(CNC(=O)c2cnc(-c3ccccn3)nc2C(F)(F)F)c1 | -12 | 11 | 4 | -0.2 | .
Cc1ccc(NS(=O)(=O)c2ccc(C)c(C(=O)N3CCOCC3)c2)cc1 | . | . | 7 | 1.3 | .
C#Cc1ccc(CN2CCC(C(=O)Nc3ccc(Oc4ccccc4)nc3)CC2)cc1 | . | . | 68 | -6.1 | .
CCn1cc(CN(C)C(=O)/C=C/c2ccc([N+](=O)[O-])cc2)c(C)n1 | -14 | -6 | 9 | -0.3 | -5%
O=C(c1ccccc1)c1c(O)cc(-c2ccccc2)oc1=O | -19 | 10 | 0 | -2.1 | -5%
CCOc1cc(/C=C\c2nc(O)c([N+](=O)[O-])c(=O)[nH]2)ccc1OC(C)CC (centres undefined) | . | . | 7 | 0.4 | .
CC1CCCCC1NC(=O)C1CCN(S(=O)(=O)c2ccc(-n3cnnn3)cc2)CC1 (centres undefined) | -13 | -10 | 3 | -1.2 | 1%
COc1ccc(C2C(C(C)=O)=C(O)C(=O)N2CCc2c[nH]c3ccccc23)cc1 (centres undefined) | . | 1 | -2 | -3.4 | -12%
O=C(CSc1nnc(-c2ccc(Cl)s2)o1)N1CCCc2ccccc21 | -13 | 2 | . | -2.1 | 9%
O=c1[nH]cccc1-c1nc2ccccc2[nH]1 | . | . | 8 | -1.0 | .
Cc1cccc(C)c1NC(=O)CNC(=O)c1c(C)nn(-c2ccccc2)c1Cl | . | . | -8 | 0.9 | .

New compounds follow.
SMILES | YopH inh | Arbovirus anti | Mtb bLac sens | RecA intein inh | Mtb H37Rv | others
Clc1cccc(N2CCN(Cc3ccc(Br)o3)CC2)c1 | . | . | 20 | 4.7 | .
O=C(N/N=C/c1cc(Br)cs1)c1ccccc1[N+](=O)[O-] | -22 | -13 | 5 | 0.1 | 2%
CCOc1cc(NC(=O)c2cccs2)c(OCC)cc1NC(=O)c1cccnc1 | . | 0 | 3 | . | 1%
CC1(C)CC(=O)C([N+](=O)[O-])=C(NCCCC(=O)O)C1 | 0 | 4 | -1 | 1.8 | 0%
COc1cccc(CN(C)C(=O)CNC(=O)c2cccs2)c1OC | . | . | -6 | -0.3 | .
CC(C)Cn1c(SCC(=O)NCc2ccco2)nnc1-c1ccncc1 | . | -3 | -8 | 1.1 | 0%
C=CCn1c(-c2cccnc2Cl)nc2ccccc21 | . | -4 | 0 | 85* | -6%
CC1=NN(S(=O)(=O)c2ccc(F)cc2)C(=O)c2ccccc2O1 | 1 | 2 | 1 | -3.8 | -10%
O=c1c(-c2ccco2)[n+]([O-])c2ccccc2n1OCc1ccccn1 | -25 | 3 | . | . | 0%
Cc1ccc(C)c(NC(=S)NC(=O)c2cncc(Br)c2)c1 | . | . | -4 | 1.2 | .
CCCCNCCOc1ccccc1-c1ccccc1 | -26 | -9 | -6 | 1.6 | 4%
O=C(COc1ccccc1Cl)N1CCCCCCC1 | . | . | -5 | 3.2 | .
Cc1csc(NC(=O)CSC2=NS(=O)(=O)c3ccccc3N2)n1 | . | . | -3 | -1.0 | .
C#C[C@@]1(O)CCC2C3CCC4=C/C(=N/OCC(=O)NC(C(=O)O)C(C)O)CC[C@]4(C)C3CC[C@@]21C (some centres undefined) | . | . | -5 | 0.1 | .
Cc1cccc(CC2CC(=O)N(c3ccc(C)cc3Br)C2=O)c1 (centres undefined) | . | . | 2 | 1.7 | .
O=C(O)CCC(=O)N1CCN(S(=O)(=O)c2cccs2)CC1 | . | . | -5 | -1.1 | .
CC(=O)N1CCN(c2ccccc2NC(=O)c2ccc(C#N)cc2F)CC1 | . | 5 | 5 | -0.3 | 6%
CC(C)CC(=O)NCCNC(=O)c1cc(OCC(F)(F)F)ccc1OCC(F)(F)F | -18 | 2 | -14 | 1.2 | 0%
Cn1c(-c2cccc([N+](=O)[O-])c2)cnc1NCc1cccc([N+](=O)[O-])c1 | . | 3 | 2 | -1.1 | 8%
COc1ccc(CNC(=O)CSc2nc3[nH]ncc3c(=O)n2-c2ccccc2Br)cc1 | . | 11 | 3 | -1.7 | 10%
CC(C)OCCCNC(=O)CN1CCN(Cc2ccccc2Cl)C1=O | -3 | 4 | 17 | 0.9 | 1%
O=C(Nc1nc2ccccc2[nH]1)c1cccc([N+](=O)[O-])c1 | . | -2 | 52 | -0.6 | >100µM*
CCN(Cc1ccccc1)S(=O)(=O)c1c(C)[nH]c(C)c1C(=O)N1CCCC1 | . | . | 6 | -1.3 | .
Cc1ccccc1C(=O)c1cccn1CC(=O)NCCCN1CC(C)CC(C)C1 (centres undefined) | . | . | -4 | 0.5 | .
O=S(=O)(Nc1ccc(S(=O)(=O)Nc2ncccn2)cc1)c1ccccc1 | . | . | -1 | 2.8 | .

In the list so far, these contain a CF3 group.
SMILES | YopH inh | Arbovirus anti | Mtb bLac sens | RecA intein inh | Mtb H37Rv | others
COc1cccc(CNC(=O)c2cnc(-c3ccccn3)nc2C(F)(F)F)c1 | -12 | 11 | 4 | -0.2 | .
CC(C)CC(=O)NCCNC(=O)c1cc(OCC(F)(F)F)ccc1OCC(F)(F)F | -18 | 2 | -14 | 1.2 | 0%

New compounds follow
SMILES | YopH inh | Arbovirus anti | Mtb bLac sens | RecA intein inh | Mtb H37Rv | others
CCN1CCc2c(OCC(=O)Nc3ccc4c(c3)OCCO4)cccc2C1=O | . | 3 | -4 | -2.2 | -1%
CCOC(=O)c1ccc(NC(=O)CSc2nnc(CNC(=O)c3ccco3)o2)cc1 | . | . | 27 | -5.2 | .
CN1C2CCC1CC(NC(=O)c1cccc(C(F)(F)F)c1)C2 (centres undefined) | . | . | -9 | -2.8 | .
O=C(CSc1ccncc1)Nc1ccc2ccccc2c1 | . | 11 | 98 | 5.2 | 1.1µM*
O=C(Nc1nc(-c2ccccc2)c(C(=O)c2ccccc2)s1)c1ccc(S(=O)(=O)N2CCCC2)cc1 | -25 | 14 | 7 | -0.4 | 8%
COc1ccccc1NC(=O)Nc1nc(CC(=O)Nc2ccc(OC)c(OC)c2)cs1 | . | . | -14 | -1.8 | .
Cc1[nH]c(=O)[nH]c(=O)c1/C=C/C(=O)O | . | . | -4 | -0.5 | -8%
CCCCNC(=O)CN1C(=O)NC(Cc2ccccc2)(Cc2ccccc2)C1=O | . | . | -7 | 0.6 | .
CCCNC(=O)COC(=O)c1c2c(nc3ccccc13)CCC2 | . | . | -2 | -2.6 | .
CC(C)NC(=O)c1onc(CSc2ccc(F)c(F)c2)c1C(=O)NC(C)C | . | . | -1 | -3.2 | 2%
CC1(C)CCC(=O)C=C1Nc1ccc(F)c(Cl)c1 | . | . | -6 | -2.9 | .
Cn1c(/C=C/c2cccc(Br)c2)nc2ccccc2c1=O | . | . | 29 | -14 | .
CC(NC(=O)CNC(=O)C(Cc1ccccc1)NC(=O)OCc1ccccc1)C(N)=O (centres undefined) | . | 0 | -2 | -4.7 | -6%
Cc1ccc(C)c(OCC(=O)Nc2ccc(S(=O)(=O)Nc3ncccn3)cc2)c1 | . | . | 1 | -0.3 | .
Cc1cc(C(=O)N2CC=C(c3ccccc3)CC2)c2ccccc2n1 | . | . | -8 | 2.1 | .
CCOc1ccc(NC(=O)N(Cc2ccc(C)cc2)Cc2ccccn2)cc1 | . | . | 0 | 3.3 | .
C#CCN(CC=C)C(=O)C1CCC(=O)N(CCCc2ccccc2)C1 (centres undefined) | . | . | 0 | -0.4 | .
CCc1cccc2c1NC(=O)[C@]21[C@@H]2C(=O)N(Cc3ccccc3)C(=O)[C@@H]2[C@@H]2CCCN21 | -45 | 7 | -4 | 12 | -10%
Cc1cc(F)ccc1NCC(=O)Nc1ccccc1Br | -30 | -1 | 7 | -1.3 | -1%
CCOC(=O)CSc1nnc(NC(=O)c2cc([N+](=O)[O-])cc([N+](=O)[O-])c2)s1 | -6 | 9 | 30 | -3.3 | 2%
O=C(CCCn1c(=S)[nH]c2cc3c(cc2c1=O)OCO3)N1CCc2ccccc2C1 | -41 | 1 | -2 | 2.0 | -1%
NNC(=O)/C(=C\c1cccs1)NC(=O)c1ccccc1 | -19 | -9 | -5 | 8.3 | 4%
Cc1cccc(NC(=O)Cn2nc([N+](=O)[O-])c(Br)c2C)n1 | . | -3 | 4 | -6.8 | 79%
O=C(NCCOC(=O)c1cccs1)c1cccnc1 | 0 | 5 | -14 | 0.6 | -5%
COC(=O)C1=C(C)N(CCCC(=O)O)C(=O)NC1c1ccc2c(c1)OCO2 (centres undefined) | . | . | -6 | -3.1 | -13%

Continued:
SMILES | YopH inh | Arbovirus anti | Mtb bLac sens | RecA intein inh | Mtb H37Rv | others
O=[N+]([O-])c1ccc(-n2nnnc2-c2ccccc2)c([N+](=O)[O-])c1 | 2 | -36 | 100 | 7.3 | 5.8µM*
COc1ccc(CNC(=O)c2sc3nc4c(c(C(F)(F)F)c3c2N)CCC4)cc1OC | -21 | 1 | 34 | -21 | 12µM*
CCCCc1cc(=O)oc2cc(OCC(=O)N(CC)CC)ccc12 | -17 | 2 | -18 | -5.9 | -3%
O=C(CCNC(=O)c1ccccc1)OCC(=O)c1cccc(Cl)c1 | . | -3 | -1 | -1.1 | .
CC(=O)c1sc(-c2ccccc2)nc1C | . | -1 | -6 | 3.0 | 4%
CCc1ccc(S(=O)(=O)N/N=C\c2ccc([N+](=O)[O-])o2)cc1 | . | . | 100 | -0.7 | .
COCCNC(=S)N/N=C/c1c(C)[nH]c2ccccc12 | -14 | 0 | 8 | -0.5 | -5%
Cn1c(=O)n(CC(=O)O)c(=O)c2c1nc1n2CCCN1CCc1ccccc1 | . | . | 0 | 1.9 | .
O=C(CCCCCn1c(=S)[nH]c2cc3c(cc2c1=O)OCO3)NCCc1ccccc1 | . | . | 3 | -0.8 | .
Cc1nc([N+](=O)[O-])cn1CC(O)c1ccccc1 (centres undefined) | . | . | -10 | -1.6 | -8%
O=C(C1CCCC1)N1CCC(CO)(Cc2ccccc2Cl)CC1 | . | -1 | 2 | 1.5 | 6%
COc1ccc(N2CCN(C(=O)C3CCC(Cn4c(=S)[nH]c5ccccc5c4=O)CC3)CC2)cc1 (centres undefined) | -4 | -8 | 98 | 4.4 | 28%
COc1ccc(CN(CC(=O)NC2CCCC2)C(=O)c2onc(C(N)=O)c2N)cc1 | -61 | 0 | 7 | -0.9 | -5%
CCOC(=O)C(=O)Nc1ccccc1C(=O)OC | . | -3 | -4 | . | -6%
Cc1ccc(N2CCN(CC(O)COc3ccccc3)CC2)cc1 (centres undefined) | . | . | 7 | -0.1 | .
COC(=O)[C@@]12CCCCN1[C@H](c1ccc(-c3ccc(OC)cc3)cc1)[C@@H]1C(=O)N(C)C(=O)[C@@H]12 | . | . | -8 | -1.9 | .
N#CCCNS(=O)(=O)c1ccc(C(=O)OCCCOC(=O)c2ccc(S(=O)(=O)NCCC#N)cc2)cc1 | . | . | 2 | -1.1 | .

No new results follow: entries from further up.
SMILES | YopH inh | Arbovirus anti | Mtb bLac sens | RecA intein inh | Mtb H37Rv | others
COC(=O)C1=C(C)NC(=O)CC1c1ccccc1OC (centres undefined) | . | 1 | -4 | -3.2 | 2%
CCC(CC)N1CCN(Cc2nc3ccccc3c(=O)n2-c2ccc(F)cc2)CC1 | . | . | -5 | 2.2 | .
O=C(COC(=O)CSc1ccccc1)NCCNC(=O)COC(=O)CSc1ccccc1 | . | . | -9 | -1.0 | .

High-throughput results: PubChem, several laboratories

These rows are one share of the data, so the mix of outcomes need not match the whole.
